Yeast UUG start = alters start codon recognition fidelity in yeast | AID 602363 | S. cerevisiae UUG-firefly luciferase reporter, luminescence/redox ratio | activity score, % at 18.7 µM | 350,000 compounds, 0.13% hits;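 active = replicate mean at a twofold rise or more, about +100% in these data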;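 note: firefly luciferase made from a UUG start codon reports start codon fidelity; reporter light over untreated wells divided by growth signal over untreated wells; some hits fall short of that in this replicate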
* hit, by the source's call.

SMILES | Yeast UUG start
CC=Cc1ccc2n(c1=O)C[C@@H]1[C@@H](CO)[C@H](C(=O)NCc3ccccc3)N(Cc3cncnc3)[C@H]21 (mixture of isomers) | -2
O=S(=O)(c1cccs1)N1CCCCN2[C@H](C1)[C@@H](c1ccc(Br)cc1)[C@@H]2CO | 5
COc1ccc(S(=O)(=O)N2CCCCN3[C@H](CO)[C@H](c4ccc(-c5cccnc5)cc4)[C@@H]3C2)cc1 | -4
COc1ccc(CN(C)C[C@H]2Oc3ccc(NS(=O)(=O)c4ccc(F)cc4)cc3C(=O)N([C@H](C)CO)C[C@@H]2C)cc1 | -4
COCC(=O)N1[C@H](CO)[C@@H]2c3ccccc3N(C(=O)c3ccccc3F)C[C@@H]21 | -5
O=C(c1ccncc1)N1CCCCN2[C@H](CO)[C@H](c3ccc(C#Cc4ccccn4)cc3)[C@@H]2C1 | 11
CCC(=O)N1C[C@H](C)[C@@H](OC)CN(C)C(=O)c2cc(NS(C)(=O)=O)ccc2OC[C@H]1C | 2
CCN(C[C@@H]1[C@@H](c2ccccc2)[C@H](CO)N1S(C)(=O)=O)C(=O)C1CCC1 | 1
Cc1noc(C)c1NC(=O)Nc1ccc2c(c1)CC(=O)N([C@H](C)CO)C[C@H](C)[C@H](CN(C)C)O2 | 10
Cn1cnc(S(=O)(=O)N2CC[C@H]3[C@H](CO)Nc4ccc(-c5ccc(F)cc5)cc4[C@H]32)c1 | -7
Cc1ccccc1-c1ccc([C@@H]2[C@H](CO)N3CCCCN(C(=O)Nc4ccccc4)C[C@@H]23)cc1 | 5
Cc1ccc(S(=O)(=O)N(C)C[C@@H]2Oc3ccc(NC(=O)CCN4CCOCC4)cc3CC(=O)N([C@@H](C)CO)C[C@H]2C)cc1 | 21
O=C(NC[C@@H]1[C@@H](c2ccccc2)[C@@H](CO)N1C(=O)C1CC1)NC1CCCC1 | -5
COCC(=O)N1CCCCN2[C@H](CO)[C@H](c3ccc(-c4cccc(C)c4)cc3)[C@H]2C1 | -7
C[C@H]1CN([C@@H](C)CO)C(=O)c2cc(NC(=O)NC3CCCCC3)ccc2O[C@H]1CN(C)CC1CCCCC1 | -5
Cc1noc(C)c1NC(=O)N(C)C[C@H]1Oc2ccc(NS(C)(=O)=O)cc2C(=O)N([C@@H](C)CO)C[C@H]1C | -18
CN(C)C(=O)c1ccc(-c2ccc([C@@H]3[C@H](CO)N4CCCCN(CC5CC5)C[C@@H]34)cc2)cc1 | 7
O=C(CC1CC1)Nc1ccc2c(c1)[C@H]1C[C@@H](CC(=O)N3CCc4ccccc4C3)O[C@H](CO)[C@H]1O2 | 16
C[C@H]1CN([C@@H](C)CO)C(=O)Cc2cc(NS(=O)(=O)c3ccc(Cl)cc3)ccc2O[C@@H]1CN(C)C | 7
O=C(C[C@H]1CC[C@H]2[C@@H](COC[C@H](O)CN2Cc2cccc(C(F)(F)F)c2)O1)NCCc1ccccc1 | 2
C[C@H]1CN([C@@H](C)CO)C(=O)c2ccccc2-c2ccccc2CO[C@H]1CN(C)C(=O)c1ccccc1 | 13
C[C@@H]1CN([C@H](C)CO)C(=O)c2cc(NS(=O)(=O)c3ccccc3)ccc2O[C@H]1CN(C)C(=O)NC1CCCCC1 | 22
CN1C(=O)c2cc(NC(=O)c3cccc(F)c3)ccc2OC[C@H]2O[C@@H](CC(=O)Nc3ccccc3)CC[C@H]21 | -10
CCCC(=O)Nc1ccc2c(c1)C(=O)N(C)C[C@H](OC)[C@@H](C)CN(Cc1ccccn1)[C@@H](C)CO2 | -13
Cc1ccccc1-c1ccc([C@H]2[C@H]3CN(C(=O)NC4CCCC4)CCCCN3[C@H]2CO)cc1 | 8

Ordered by value in Yeast UUG start (descending): some entries from above.
SMILES | Yeast UUG start
Cc1noc(C)c1NC(=O)Nc1ccc2c(c1)CC(=O)N([C@H](C)CO)C[C@H](C)[C@H](CN(C)C)O2 | 10
Cc1ccccc1-c1ccc([C@H]2[C@H]3CN(C(=O)NC4CCCC4)CCCCN3[C@H]2CO)cc1 | 8
C[C@H]1CN([C@@H](C)CO)C(=O)c2cc(NC(=O)NC3CCCCC3)ccc2O[C@H]1CN(C)CC1CCCCC1 | -5

Other compounds:
SMILES | Yeast UUG start
Cc1noc(C)c1NC(=O)N(C)C[C@@H]1Oc2c(NS(=O)(=O)c3cccs3)cccc2C(=O)N([C@@H](C)CO)C[C@@H]1C | 5
CC(C)NC(=O)N1CCCCN2[C@H](C1)[C@H](c1ccc(C#Cc3ccccc3)cc1)[C@@H]2CO | 7
COc1cccc(-c2ccc([C@@H]3[C@H]4CN(S(=O)(=O)c5cn(C)cn5)CCCCN4[C@H]3CO)cc2)c1 | -2
COCC(=O)Nc1ccc2c(c1)OC[C@@H](C)N(C(=O)Cc1ccccn1)C[C@@H](C)[C@@H](OC)CN(C)C2=O | -3
C[C@@H]1CN([C@H](C)CO)C(=O)c2cccc(NC(=O)c3ccc(-c4nccs4)cc3)c2O[C@H]1CN(C)C | -3
CO[C@H]1CN(C)C(=O)c2cc(NC(=O)C3CCCCC3)ccc2OC[C@@H](C)N(C)C[C@@H]1C | -10
COc1ccc(C#Cc2ccc([C@@H]3[C@@H](CO)N4CCCCN(C)C[C@H]34)cc2)cc1 | 1
C[C@@H]1CN([C@H](C)CO)C(=O)c2c(c3ccccc3n2C)-c2ccccc2CO[C@@H]1CN(C)S(C)(=O)=O | 5
CN(C)C(=O)C[C@H]1C[C@@H]2c3cc(NS(=O)(=O)c4ccccc4)ccc3O[C@@H]2[C@@H](CO)O1 | 2
C[C@H](CO)N1C[C@H](C)[C@@H](CN(C)Cc2ccc(Cl)c(Cl)c2)Oc2ccc(NS(=O)(=O)c3ccccc3)cc2C1=O | -2
COc1ccc(CN(C)C[C@@H]2Oc3ccc(NS(=O)(=O)c4cn(C)cn4)cc3C(=O)N([C@@H](C)CO)C[C@H]2C)cc1 | -4
COc1ccccc1C#Cc1ccc([C@@H]2[C@@H](CO)N3CCCCN(C(=O)C4CCCC4)C[C@H]23)cc1 | -16
O=C(Nc1cccc(F)c1)N1CCCCN2[C@@H](CO)[C@@H](c3ccc(-c4ccncc4)cc3)[C@@H]2C1 | 8
O=C(c1ccc(F)cc1)N1CC[C@@H]2[C@H]1c1cc(-c3ccccc3F)ccc1N[C@@H]2CO | -12
C[C@H](CO)N1C[C@H](C)[C@@H](CN(C)S(=O)(=O)c2cn(C)cn2)Oc2ccc(NC(=O)CCN3CCOCC3)cc2C1=O | 6
Cc1cc(C(=O)Nc2cccc3c2O[C@H](CN(C)Cc2ccc(-c4ccccc4)cc2)[C@H](C)CN([C@H](C)CO)C3=O)n(C)n1 | -4
CO[C@H]1CN(C)C(=O)c2cc(NS(=O)(=O)c3ccc(C)cc3)ccc2OC[C@H](C)N(C)C[C@@H]1C | 9
Cc1ccccc1S(=O)(=O)N1CC[C@@H]2[C@H]1c1cc(-c3ccc(C#N)cc3)ccc1N[C@@H]2CO | 1
OC[C@H]1[C@H](c2ccc(C#CC3CCCC3)cc2)[C@H]2CN(CCC(F)(F)F)CCCCN21 | 0
CNC[C@H]1Oc2c(NS(=O)(=O)c3ccc(Cl)cc3)cccc2C(=O)N([C@H](C)CO)C[C@H]1C | 5
CCCC#Cc1ccc([C@@H]2[C@@H](CO)N3CCCCN(S(=O)(=O)c4ccccc4F)C[C@@H]23)cc1 | 13
COCCNC(=O)C[C@H]1C[C@@H]2c3cc(NC(=O)NC4CCCC4)ccc3O[C@@H]2[C@H](CO)O1 | -7
C[C@H](O)C#Cc1ccc([C@@H]2[C@@H](CO)N3CCCCN(CC4CCOCC4)C[C@H]23)cc1 | 8
CCCNC(=O)[C@H]1[C@H](CO)[C@H]2Cn3c(ccc(C4=CCCCC4)c3=O)[C@@H]1N2CC | 2
C[C@@H]1CN([C@@H](C)CO)C(=O)c2cccc(NC(=O)c3cnccn3)c2O[C@@H]1CN(C)S(C)(=O)=O | -7

3 successive compounds already listed:
SMILES | Yeast UUG start
CCCC#Cc1ccc([C@@H]2[C@@H](CO)N3CCCCN(S(=O)(=O)c4ccccc4F)C[C@@H]23)cc1 | 13
COCCNC(=O)C[C@H]1C[C@@H]2c3cc(NC(=O)NC4CCCC4)ccc3O[C@@H]2[C@H](CO)O1 | -7
C[C@H](O)C#Cc1ccc([C@@H]2[C@@H](CO)N3CCCCN(CC4CCOCC4)C[C@H]23)cc1 | 8

A different layout for 3 compounds above.
smiles	Yeast UUG start
O=S(=O)(c1cccs1)N1CCCCN2[C@H](C1)[C@@H](c1ccc(Br)cc1)[C@@H]2CO	5
CN1C(=O)c2cc(NC(=O)c3cccc(F)c3)ccc2OC[C@H]2O[C@@H](CC(=O)Nc3ccccc3)CC[C@H]21	-10
O=C(NC[C@@H]1[C@@H](c2ccccc2)[C@@H](CO)N1C(=O)C1CC1)NC1CCCC1	-5

More entries.
SMILES | Yeast UUG start
OC[C@H]1[C@@H](c2ccc(C#Cc3ccccc3F)cc2)[C@H]2CN(CC3CCOCC3)CCCCN21 | 0
C/C=C/c1ccc([C@@H]2[C@H]3CN(S(=O)(=O)c4ccccc4)CCCCN3[C@H]2CO)cc1 | 4
CN1c2ccc(-c3ccc(C#N)cc3)cc2[C@H]2[C@H](CCN2S(=O)(=O)c2ccc(F)cc2)[C@H]1CO | -1
O=C(CN1CCOCC1)N1CC[C@@H]2[C@H]1c1cc(-c3ccccc3)ccc1N[C@@H]2CO | -2
C[C@@H]1CN([C@@H](C)CO)C(=O)c2cccc(NS(=O)(=O)c3cccs3)c2O[C@@H]1CN(C)Cc1ccc(-c2ccccc2)cc1 | 7
CCCNC(=O)N1[C@@H]2CN(C(=O)c3ccncc3)c3ccccc3[C@@H]2[C@@H]1CO | -1
C[C@@H]1CN([C@H](C)CO)C(=O)c2cccc(NC(=O)c3nc4ccccc4s3)c2O[C@H]1CN(C)CC1CCCCC1 | 10
CCCNC(=O)C[C@H]1C[C@H]2c3cc(NC(=O)C4CCC4)ccc3O[C@H]2[C@@H](CO)O1 | -5
O=C(C[C@@H]1CC[C@@H]2[C@H](COC[C@@H](O)CN2C(=O)c2ccncc2)O1)NCc1cc(F)cc(F)c1 | -18
O=C(C[C@@H]1C[C@@H]2c3cc(NC(=O)CC4CC4)ccc3O[C@@H]2[C@@H](CO)O1)NCc1cccnc1 | 1
C[C@H](CO)N1C[C@H](C)[C@H](CN(C)C)Oc2ccc(NC(=O)Nc3ccc(F)cc3)cc2CC1=O | 0
O=C(C[C@H]1CC[C@H]2[C@@H](COC[C@@H](O)CN2C(=O)Nc2ccc(C(F)(F)F)cc2)O1)NCCc1ccncc1 | -11
C[C@H]1CN([C@@H](C)CO)C(=O)c2cccc(NC(=O)C3CCCCC3)c2O[C@H]1CN(C)Cc1ccc(C(F)(F)F)cc1 | -6
O=C(Cc1ccccc1)N1CC[C@@H]2[C@H](CO)Nc3ccc(Br)cc3[C@@H]21 | -2
O=C(C[C@@H]1C[C@H]2c3cc(NC(=O)Nc4ccccc4)ccc3O[C@H]2[C@@H](CO)O1)NCC1CC1 | -7
C[C@H](CO)N1C[C@H](C)[C@H](CN(C)C(=O)Nc2ccccc2)Oc2c(NC(=O)c3ccncc3)cccc2C1=O | -8
C[C@@H]1CN([C@H](C)CO)C(=O)c2cc(NC(=O)CCC(F)(F)F)ccc2O[C@H]1CN(C)Cc1ccc(C(F)(F)F)cc1 | 20
CO[C@H]1CN(C)C(=O)c2ccc(NC(=O)Nc3cccc(F)c3)cc2OC[C@@H](C)N(C(=O)Nc2c(C)noc2C)C[C@@H]1C | -5
COc1cccc(-c2ccc([C@H]3[C@H](CO)N4CCCCN(C(=O)c5ccc6c(c5)OCO6)C[C@@H]34)cc2)c1 | -2
COc1ccccc1C(=O)Nc1ccc2c(c1)C(=O)N(C)[C@H]1CC[C@@H](CC(=O)NCc3ccc(Cl)c(Cl)c3)O[C@@H]1CO2 | -18
COc1ccc(S(=O)(=O)Nc2ccc3c(c2)[C@@H]2C[C@@H](CC(=O)O)O[C@H](CO)[C@@H]2O3)cc1 | 17
O=C(C[C@@H]1CC[C@H]2[C@@H](COC[C@@H](O)CN2CCc2ccccc2)O1)N1CCC(Cc2ccccc2)CC1 | 10
CO[C@@H]1CN(C)C(=O)c2cc(NC(=O)NC3CCCCC3)ccc2OC[C@H](C)N(C(C)=O)C[C@@H]1C | 8
C[C@H](CO)N1C[C@H](C)[C@@H](CN(C)Cc2ccc(Oc3ccccc3)cc2)Oc2c(NS(C)(=O)=O)cccc2C1=O | 1
O=S(=O)(c1ccc(F)cc1)N1CCCCN2[C@H](CO)[C@H](c3ccc(C#CC4CC4)cc3)[C@@H]2C1 | 21

Grouped by structure, those above with a cyano group.
SMILES | Yeast UUG start
Cc1ccccc1S(=O)(=O)N1CC[C@@H]2[C@H]1c1cc(-c3ccc(C#N)cc3)ccc1N[C@@H]2CO | 1
CN1c2ccc(-c3ccc(C#N)cc3)cc2[C@H]2[C@H](CCN2S(=O)(=O)c2ccc(F)cc2)[C@H]1CO | -1

(cont.)
SMILES | Yeast UUG start
CC(=O)N(C)C[C@@H]1[C@@H](c2ccccc2)[C@H](CO)N1C(=O)C1CC1 | -13
O=C(NC1Cc2ccccc2C1)[C@@H]1[C@@H](CO)[C@@H]2Cn3c(ccc(C4=CCCCC4)c3=O)[C@H]1N2 | 1
CCC(=O)N1CCCCN2[C@H](CO)[C@H](c3ccc(C#Cc4cccnc4)cc3)[C@@H]2C1 | -6
Cc1ccc(S(=O)(=O)N(C)C[C@@H]2Oc3ccc(NC(=O)Cc4ccccc4)cc3C(=O)N([C@@H](C)CO)C[C@@H]2C)cc1 | 27
COc1ccc(S(=O)(=O)Nc2ccc3c(c2)CC(=O)N([C@@H](C)CO)C[C@H](C)[C@@H](CN(C)C)O3)cc1 | -26
COc1ccc(NC(=O)N(C)C[C@@H]2OCc3ccccc3-c3ccccc3C(=O)N([C@@H](C)CO)C[C@H]2C)c(OC)c1 | 5
Cc1noc(C)c1NC(=O)Nc1ccc2c(c1)C(=O)N([C@H](C)CO)C[C@H](C)[C@H](CN(C)Cc1ccc(Oc3ccccc3)cc1)O2 | -6
O=C(c1ccc(F)cc1)N1[C@@H]2CNc3ccccc3[C@@H]2[C@@H]1CO | 2
COc1ccc(S(=O)(=O)N2CC[C@@H]3[C@H](CO)N(C)c4ccc(-c5ccc(F)cc5)cc4[C@@H]32)cc1 | -11
CO[C@H]1CN(C)C(=O)c2ccc(NC(=O)c3ccccc3)cc2OC[C@@H](C)NC[C@H]1C | 20

An excerpt; count on the stated rates, not on these rows.
